Compound activity as filed in PubChem BioAssay.
Rce1 inhib: yeast Rce1p protease inhibitors, primary screen, biochemical, fluorescence, cell-free homogeneous | CAAX prenyl protease 2 (Saccharomyces cerevisiae (strain ATCC 204508 / S288c)), Q03530 | AID 2563, 2010 | calls only | yeast membranes, quenched prenylated peptide cleavage fluorescence | 0.27% of 290,000 active;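 active = fall in fluorescence gain of 50% or more versus controls, with final raw signal at or below 3038400; inconclusive = same 50% fall but final raw signal above 3038400; inactive = fall in fluorescence gain under 50%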;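 note: plate controls were neutral control wells for no effect and wells lacking membranes for full effect; tested at 10 µM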
Target sequence (Q03530 whole entry, looked up): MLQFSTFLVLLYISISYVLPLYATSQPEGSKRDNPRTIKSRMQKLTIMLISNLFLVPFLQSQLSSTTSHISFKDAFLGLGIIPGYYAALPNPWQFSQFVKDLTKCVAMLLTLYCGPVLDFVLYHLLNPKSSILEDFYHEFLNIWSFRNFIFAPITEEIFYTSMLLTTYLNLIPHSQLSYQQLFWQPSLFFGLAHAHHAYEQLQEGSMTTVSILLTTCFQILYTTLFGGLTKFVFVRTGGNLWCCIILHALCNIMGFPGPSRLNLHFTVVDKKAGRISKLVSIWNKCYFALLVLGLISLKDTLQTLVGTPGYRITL
PABP polyA inh: PABP poly(A) RNA binding inhibitors, primary screen, biochemical, fluorescence polarization, uHTS; inhibition, % at 35 µM; 1% of 290,000 active; AID 2014, 2009;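 active = 50% or more with normal probe brightness, or confirmed in later tests; inconclusive = above 50% with abnormal brightness, or retests that disagree; inactive = below 50% or failed in later tests; about a fifth of its hits are not listed in these tables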;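 note: calls also rest on retests at 20 µM and on dose response follow-up; controls were probe without protein and protein plus probe with vehicle; some compounds called inactive have numbers as strong as hits; many hits fall short of the cut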
Target sequence (P11940 whole entry, looked up): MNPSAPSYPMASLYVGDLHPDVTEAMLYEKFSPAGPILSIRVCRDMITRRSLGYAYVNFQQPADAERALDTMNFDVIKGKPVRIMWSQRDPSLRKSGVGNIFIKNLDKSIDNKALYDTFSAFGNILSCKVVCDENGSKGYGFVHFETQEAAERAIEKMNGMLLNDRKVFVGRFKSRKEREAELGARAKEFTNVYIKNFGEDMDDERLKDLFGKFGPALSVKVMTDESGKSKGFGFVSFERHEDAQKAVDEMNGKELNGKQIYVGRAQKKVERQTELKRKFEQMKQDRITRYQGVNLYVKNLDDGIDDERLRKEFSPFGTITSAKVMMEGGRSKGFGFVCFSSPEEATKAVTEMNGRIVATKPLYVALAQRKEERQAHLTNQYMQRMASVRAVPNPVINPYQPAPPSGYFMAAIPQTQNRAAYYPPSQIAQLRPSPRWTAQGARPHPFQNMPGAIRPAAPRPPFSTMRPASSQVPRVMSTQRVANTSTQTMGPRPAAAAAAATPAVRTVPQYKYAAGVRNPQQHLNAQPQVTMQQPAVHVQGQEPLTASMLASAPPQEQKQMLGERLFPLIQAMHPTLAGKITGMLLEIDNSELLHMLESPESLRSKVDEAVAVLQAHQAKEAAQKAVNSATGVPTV
CSC inhib: cancer stem cell viability inhibitors, primary screen, luminescence; cancer stem cell-like cells viability; inhibition, % at 7.5 µM; 1.1% of 300,000 active;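 active = mean at 75% or more and at least half the replicates too; inconclusive = mean and replicates disagree; tested in HMLE shEcad cells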;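 note: 0% = median of negative and 100% = median of positive control wells; the first replicate is given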
UUG fidelity: modulators of yeast start codon fidelity, primary screen, whole organism, S. cerevisiae, single point, plate reader | S. cerevisiae UUG-firefly luciferase reporter, luminescence/redox ratio | activity score, % at 18.7 µM | 0.13% of 350,000 active | AID 602363, 2012;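 active = replicate mean at a twofold rise or more, about +100% in these data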;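 note: firefly luciferase made from a UUG start codon reports start codon fidelity; reporter light over untreated wells divided by growth signal over untreated wells; some hits fall short of that in this replicate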
HIV Env fusion: inhibitors of HIV-1 Env-driven cell-cell fusion, primary screen, HeLa-JRFL effector, CEM21 target cells, luciferase. inhibition, % at 12.3 µM. 1.1% of 360,000 active. AID 651610, 2012;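 active = mean replicate inhibition score of at least 50 and every replicate individually at or above 50; inconclusive = only one of the two criteria met; inactive = mean below 50 and not all replicates reaching 50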;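 note: 0% = plate neutral controls and 100% = maraviroc near 300 nM; one replicate is shown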
eIF4H inh: human eIF4H binding inhibitors, primary screen, translation initiation inhibitor project, biochemical, uHTS, fluorescence polarization; eIF4H fluorescence polarization binding assay; 0.94% of 290,000 active; inhibition, % at 35 µM; Eukaryotic translation initiation factor 4H (Homo sapiens), Q15056;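 active = 50% or more with normal probe brightness, or confirmed in later tests; inconclusive = above 50% with abnormal brightness, or retests that disagree; inactive = below 50% or failed in later tests; about a fifth of its hits are not listed in these tables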;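 note: calls also rest on retests at 20 µM and on dose response follow-up; 0% = protein and probe with vehicle and 100% = probe without protein; strong numbers were not always called active; many hits fall short of the cut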
MT1-MMP act inh: blockers of MT1-MMP proenzyme processing, primary screen, HT1080 RFP-PRO-GFP cells, GFP/RFP fluorescence; GFP/RFP ratio fluorescence, overnight; percent of plate control window, DMSO zero; GFP/RFP ratio change, % at 20 µM; 0.061% of 360,000 active;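 active = GFP/RFP ratio change of at least 30% with cell ATP level not reduced by more than half and red fluorescence within 50% of control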; note: strong numbers were not always called active
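Assay system: HT1080 cells carrying an RFP-PRO-GFP reporter | Dosing: Single dose of 20 µM compound, 1% DMSO final | Incubation: Cells overnight before dosing, compound overnight, 37 °C, 5% CO2 | Evaluation: GFP/RFP fluorescence ratio | Control set: DMSO and RFP-L50D-GFP cell wells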
eIF4H inh retest: second read-out of eIF4H inh, no call of its own (marks repeat the call); inhibition, %; compound at 20 µM; confirmation average;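 mean of two retest wells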
PABP polyA inh retest: further read-out of PABP polyA inh, marked with its call; inhibition, %; compound at 20 µM; confirmation repeats;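 mean of two retest wells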
MT1-MMP act inh RFP: second read-out of MT1-MMP act inh, no call of its own (marks repeat the call); RFP signal change, %; measured here: RFP expression control read;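 0 = vehicle wells; hits needed this value within 50% of zero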
* marks the source's active call; other numbers are inactive results; i = inactive; ? = inconclusive; . = not tested or not shown; & = joins results of further samples.

SMILES	Rce1 inhib	PABP polyA inh	CSC inhib	UUG fidelity	HIV Env fusion	eIF4H inh	MT1-MMP act inh	MT1-MMP act inh RFP	others
CCN(CC)CCN1C(=O)/C(=C\c2ccc(Cl)c([N+](=O)[O-])c2)SC1=Nc1ccc(OC)cc1	i	-2	?	-3	-268	3	-25	-36
COc1cc(OC)c(OC)cc1/C=N/NC(=S)NCCN1CCOCC1	i	9	-5	.	12	-9	-2	2
COCCNC(=O)c1ccc2c(=O)n(Cc3ccco3)c(SCC(=O)Nc3ccc(OC)cc3OC)nc2c1	i	4	6	-15	-16	-2	-5	-3
COc1ccc(NC(=S)NN2CCOCC2)cc1OC	i	28	.	-2	15	-7	-2	5
Nc1cccc(C(=O)O)c1	i	9	-12	-29	-23	4	9	-2
Cc1cc(C(=O)N(C)CC(=O)Nc2ccc(Cl)c(C(F)(F)F)c2)no1	i	.	-7	.	-119	.	3	-3
COc1cc(/C=C/C(=O)OCC(=O)N2CCc3ccccc3C2)ccc1O	i	-1	4	-19	28	-4	2	0
O=C(NCCNc1ccc([N+](=O)[O-])cc1Cl)c1ccccc1F	i	2	4	-24	8	2	4	-1
COc1ccccc1NS(=O)(=O)c1ccc(NC(=O)c2nc3ncccn3n2)cc1	i	1	.	.	.	-5	2	5
Cc1ccc(NCc2nnc(SCC(=O)Nc3ncc(C)s3)n2CC2CCCO2)c(C)c1 (configuration not stated)	i	-4	-2	.	-81	1	-1	0
CN(C)CCCNc1cc(-c2ccccc2)nc2cc(-c3cccc(F)c3)nn12	i	1	10	-18	-19	-6	-10	-12
CCCCN(C(=O)c1cc2c(s1)CCCCC2)c1c(N)n(CCC)c(=O)[nH]c1=O	.	.	-13	-8	10	.	-3	3
Cc1c(C(=O)Nc2cccc(F)c2)cnn1-c1ccccc1	i	10	1	-13	-331	-2	-4	-13
CC(C)c1ccc(NC(=O)Cc2ccc(NC3=NC4CS(=O)(=O)CC4S3)cc2)cc1 (configuration not stated)	i	-12	0	-14	22	-5	-2	1
CCCCNC(=O)c1cccc(NC(=O)C(=O)c2ccccc2NC(C)=O)c1	i	0	-18	-10	-9	-10	3	3
COc1cc(S(=O)(=O)NC2CCCCC2)ccc1F	i	2	-9	-5	-43	-2	-3	-4
CN=C(Nc1cccc(S(=O)(=O)N2CCOCC2)c1)c1ccccc1	.	.	-5	-6	6	.	-1	0
Cc1cc(OCC(=O)c2ccc(Br)cc2)ccc1N1C(=O)CCC1=O	i	-6	3	-7	-11	-6	-3	-1
O=C(CNC(=O)c1ccc(-c2ccccc2)cc1)OCc1ccc(Cl)cc1	i	-19	-14	-4	.	8	1	2
Cc1cc(Br)cnc1NC(=S)Nc1ccc(F)cc1F	i	-9	1	.	12	-5	1	1
CCSc1ccccc1C(=O)NC1CCCCC1	i	-3	-6	.	-7	2	-1	1
CCc1ccc2[nH]c(=O)c(CN(Cc3ccc4c(c3)OCO4)C(=O)c3ccco3)cc2c1	i	11	-39	.	.	0	.	.
C[C@@H]1CN([C@@H](C)CO)C(=O)c2cc(Br)cnc2O[C@H]1CN(C)C(=O)c1cccc(F)c1	.	.	.	-5&-3	11	.	2	2
Clc1cccc(OCCCCCN2CCOCC2)c1	i	3	2	-13	8	-5	3	3
CCOC(=O)c1ccc(S(=O)(=O)N2CCN(S(=O)(=O)CC)CC2)cc1	i	-2	-13	-18	-33	5	1	-4
NC(=O)CC(NC(=O)Cc1ccc(Cl)cc1)c1ccc(NC2CCN(Cc3ccccc3)CC2)c([N+](=O)[O-])c1 (configuration not stated)	i	-3	1	-1	-13	-8	7	6
CC(O)CNCCCOc1ccccc1OCc1ccccc1 (configuration not stated)	i	6	-8	.	-18	13	-1	2
CCC1Nc2ncnc(N3CCOCC3)c2N(Cc2ccc(C)cc2)C1=O (configuration not stated)	i	.	7	-4	-2	.	-2	4
CSc1ccccc1C(=O)OCC(=O)Nc1ccc(N2CCOCC2)cc1	.	.	-4	.	-75	.	1	-2
Cc1c(-c2ncn[nH]2)sc(C#N)c1-c1ccccc1	i	19	-3	-1	-16	4	-3	-4
CCC1Oc2ccc(C)cc2N(CC(=O)NCc2cc(OC)ccc2OC)C1=O (configuration not stated)	i	6	-8	3	.	-13	1	-1
CCOC(=O)C1=C(CSc2nccn2C)NC(=O)NC1c1ccc2c(c1)OCO2 (configuration not stated)	i	-3	-2	-9	.	2	0	2
COc1ccccc1C(=O)COC(=O)CN1C(=O)NC2(CCCC2)C1=O	i	.	-10	.	.	.	-3	0
COc1cc(C(=O)N2CCC(C(N)=O)CC2)ccc1OCc1c(C)noc1C	.	.	-16	.	6	.	1	6
CCCCOc1ccc(C(O)C(CN2CCCCC2)c2ccccc2)cc1 (configuration not stated)	i	3	.	.	8	-1	0	-2
Cc1c(NCc2cccnc2)cccc1C(=O)O	i	-3	-7	-11	0	-11	-3	3
Cc1cccc(C)c1Nc1nnc(SCc2nc3ccccc3s2)s1	i	-1	.	.	.	-8	-2	4
CCOc1ccc(C(=O)Nc2nnc(SCC(=O)NCC3CCCO3)s2)cc1 (configuration not stated)	i	-6	4	-36	14	-7	7	-3
COCCCNC(=O)CCS(=O)(=O)Cc1ccc(C)cc1	i	-6	-13	-16	.	6	1	3
O=C(NCc1ccco1)c1ccc(COc2cc(Cl)ccc2Cl)cc1	i	1	36	-9	-4	3	3	-4
O=C(O)C[C@@H](CNC(=O)COc1ccc2ccc(=O)oc2c1)c1ccc(Cl)cc1	i	-6	-12	-25	5	11	-2	1
O=C(c1ccccc1F)N1CCN(c2cccc(C(F)(F)F)c2)CC1	i	2	-5	-6	-7	3	0	-1
C#CCN1C(=O)C(O)(CC(=O)c2cccc(OC)c2)c2ccccc21 (configuration not stated)	i	7	.	-9	-10	8	-3	4
COc1ccc(OCCOC(=O)CCS(=O)(=O)c2ccc(C)cc2)cc1	i	.	-9	-13	-3	.	-24	-5
COc1ccccc1NC(=S)N1CCN(c2cccc(C)c2C)CC1	i	-2	3	-25	20	-4	-1	-7
COc1ccccc1S(=O)(=O)N(C)C[C@@H]1Oc2ncc(-c3ccc(C)cc3)cc2C(=O)N([C@H](C)CO)C[C@@H]1C	.	.	.	0&10	-2	.	-1	0
CCc1ccccc1NC(=O)c1ccccc1N1C(=O)C2C3C=CC(C3)C2C1=O (configuration not stated)	i	5	9	-13	11	0	0	3
CC(=O)c1cccc(NC(=S)NCCCCc2ccccc2)c1	i	-13	.	-29	1	0	4	-8
Cc1ccccc1N(CC(=O)NC1CCCC1)C(=O)C1(C)CC(=O)N=C2C=CC(Cl)=CN21 (configuration not stated)	?	7	7	-16	1	0	-1	1
COc1ccccc1N1C(=O)CC(Sc2n[nH]c(-c3cccc(C)c3)n2)C1=O (configuration not stated)	i	-3	7	-24	-4	-5	-5	-2
Cc1ccc(C)c(OCC(O)CN2CCC(Cc3ccccc3)CC2)c1 (configuration not stated)	i	0	52	1	55*	1	2	-8
CSc1nc(C)c2c(n1)N(c1ccc(C(C)C)cc1)CC2	i	0	8	.	.	-8	1	-5
C[C@H](NC(=O)c1ccccc1)C(=O)OCC(=O)Nc1sccc1C(N)=O	.	.	-1	-8	11	.	1	6
COc1ccccc1NC(=O)COC(=O)c1ccc2c(=O)n3c(nc2c1)CCC3	.	.	.	9	-39	.	4	3
BrC(/C=C\c1ccccc1)=N/Nc1nc(N2CCOCC2)nc(N2CCOCC2)n1	.	5	6	.	17	2	-8	-6
C/C(=N\Nc1ccc(S(=O)(=O)Nc2ccccc2)cc1[N+](=O)[O-])c1ccncc1	i	8	50	.	18	-3	.	.
CCC(C)N(C(=O)COC(=O)Cc1n[nH]c(=O)c2ccccc12)C1CCS(=O)(=O)C1 (configuration not stated)	i	0	-15	-12	-74	-11	-3	-3
COc1cc(-c2c(NC(=O)c3ccco3)oc3ccc(Cl)cc3c2=O)cc(OC)c1OC	.	.	.	-2	4	.	1	3
O=C(O)c1cccc(NC(=O)c2ccccc2NC(=O)c2ccco2)c1	i	6	2	1	.	-40	-2	5
O=C(N/C(=C/c1ccccc1)C(=O)N1CCCCCC1)c1ccccc1	i	8	1	.	24	-13	-1	2

Additional compounds follow.
SMILES	Rce1 inhib	PABP polyA inh	CSC inhib	UUG fidelity	HIV Env fusion	eIF4H inh	MT1-MMP act inh	MT1-MMP act inh RFP	others
CCN(CC)S(=O)(=O)c1ccc(-c2cc(C(=O)OC)sc2C(F)(F)F)cc1	i	5	6	-7	-10	-12	5	-2
Cc1cc(C)c(S(=O)(=O)Nc2cc(C)on2)c(C)c1	i	-1	-12	-18	0	-8	-2	5
CCOC(=O)C1CCN(C(C)=C2C(=O)c3ccccc3C2=O)CC1	i	11	.	10	.	-1	-10	-5
C[C@@H]1CN([C@H](C)CO)C(=O)CCCn2nncc2CO[C@H]1CN(C)C(=O)Cc1ccccc1	.	.	.	-3&27	19	.	3	7
CNC(=O)COC(=O)c1ccc2c(c1)NC(=O)C1CCCN21 (configuration not stated)	i	9	-10	.	.	0	.	.
O=C(NC1CCOCC1)C1CCC(=O)N(Cc2cccc(C(F)(F)F)c2)C1 (configuration not stated)	i	2	-3	.	-6	-6	0	1
C=CCOc1ccc(CNc2ccc3[nH]c(=O)[nH]c3c2)cc1OC	.	9.0*	.	.	11	104*	-16	-2	eIF4H inh retest=92*;PABP polyA inh retest=68*
O=C(O)c1ccc2c(c1)S(=O)(=O)c1cc(N3CCN(c4ncccn4)CC3)ccc1C2=O	.	.	.	6	-13	.	-6	1
COc1ccc(-c2cccc(C(=O)Nc3ccc(OC)c(OC)c3)c2)cc1	i	1	1	-17	.	4	0	-8
COc1ccc(CCNC2=CC(=O)CC(C)(C)C2)cc1	i	0	-22	.	3	2	-2	1
COc1ccc(C2=NCCn3nc4cc(OC)ccc4c32)cc1	.	.	-10	-18	6	.	0	3
CCc1nnc(NC(=O)C2CCCN2C(=O)Nc2ccc(C)cc2)s1 (configuration not stated)	i	-3	.	-14	-35	4	0	1
CC(C)Oc1ccccc1NC(=O)CSc1nccn1C	i	0	-2	.	-1	-9	-3	0
CC1CN(C(=O)c2ccccc2OCc2ccc(Cl)cc2Cl)CC(C)O1 (configuration not stated)	.	.	-5	-9	4	.	-3	-7
Cc1c(Cl)cccc1NC(=O)CNC(=O)CCS(=O)(=O)c1ccc(F)cc1	.	.	.	-14	-8	.	-1	1
CCn1c(CNc2nc3ccccc3n2C(C)C)nc2ccccc21	i	11	-3	-23	16	6	1	0
Cc1cc(C)nc(NC(=S)NC(=O)c2ccccc2)n1	i	-3	-5	-5	5	-1	1	1
Cc1cc(C)c2c(CC(=O)O)c(C)[nH]c2c1	i	5	-7	-19	5	9	-8	4
CCOC(=O)c1c(C)nc(C)c(C(=O)OCC)c1-c1cccc([N+](=O)[O-])c1	.	.	.	8	17	.	0	-2

A portion of the library; rates above refer to the full screens.
